RE007 growth inh: less growth of the S. pombe RE007 Vpr strain; S. pombe RE007 Vpr strain, BacTiter-Glo ATP luminescence, 24 h; control for the full effect not named in the record; Potency, µM (titrated, usually from 92.2 µM), without a hit: at the highest dose activity change, negative = less growth; 360,000 tested, 0.21% active; AID 651644; active = well fitted falling curve with a large enough effect; inconclusive = small, poorly fitted or top-dose-only effect; inactive = no such curve, though single readings can be large or run the other way;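 note: % is set by controls: 0 for no effect and ±100 for the full control effect; nearly all actives have a fitted effect of over 50% in size; the assay follows cell death caused by Vpr and the record does not say whether a fall means rescue or toxicity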
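Fission yeast RE007 carrying one integrated HIV-1 vpr copy, seeded at OD 0.01 in PMG+AL medium with 23 nL pinned compound. Grown 24 h at 30 degrees; viability read by BacTiter-Glo luminescence after 5 min.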
NS1 inh: blocks influenza NS1 protein function. S. cerevisiae slowed by influenza A NS1, growth recovery by OD600. Potency, µM (doses to about 46.1 µM), for inactives: at the top dose activity, positive = more growth. 270,000 tested, 0.4% active; note: actives are rising curves; nearly all actives have a fitted effect of over 50% in size
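Compounds were scored for reversing the slow growth caused by influenza A NS1 in S. cerevisiae, measured by optical density at 600 nm. Assay medium contained 2% galactose at pH 6.0; NS1-free yeast of the same strain were the positive control.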
StopGo reporter: FMDV 2A StopGo reporter, luciferase signal; human cells with a luciferase reporter of 2A StopGo recoding; control for the full effect not named in the record; Potency, µM (highest dose often 57.9 µM), without a hit: at the top dose signal change, negative = less light; 410,000 tested, 1.2% active; active = well fitted falling curve with a large enough effect; inconclusive = small, poorly fitted or top-dose-only effect; inactive = no such curve, though single readings can be large or run the other way; tested in HEK293T cells; note: % is set by controls: 0 for no effect and ±100 for the full control effect; nearly all actives have a fitted effect of over 45% in size; luciferase light after 4 h
SARS PLP yeast: SARS-CoV PLP inhibition in yeast; S. cerevisiae expressing SARS-CoV PLpro, growth rescue; control for the full effect not named in the record; Potency, µM (doses to about 32.9 µM), inactives show top-dose activity, positive = growth rescue; 330,000 tested, 0.19% active; note: 0% is about no effect; nearly all actives have a fitted effect of over 55% in size; growth read by luminescence after 48 h
Cruzain noTriton: cruzain (T. cruzi) inhibition without detergent. P25779. purified cruzain, Z-FR-AMC fluorescence, no detergent. Potency, µM, for the others: max response, negative = inhibition, actives largely listed as inhibitors. 200,000 tested, 2.3% active; active = well fitted curve in the direction sought with a large enough effect; inconclusive = small, poorly fitted or top-dose-only effect, or another doubt; inactive = no such curve, though single readings can be large; an effect the other way counts as inactive or inconclusive;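 note: plate controls were enzyme without inhibitor for no effect and buffer without enzyme for full effect; nearly all actives have a fitted effect of over 40% in size; top concentration of the series not given in the record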
Target sequence (P25779 123-467 limits assumed): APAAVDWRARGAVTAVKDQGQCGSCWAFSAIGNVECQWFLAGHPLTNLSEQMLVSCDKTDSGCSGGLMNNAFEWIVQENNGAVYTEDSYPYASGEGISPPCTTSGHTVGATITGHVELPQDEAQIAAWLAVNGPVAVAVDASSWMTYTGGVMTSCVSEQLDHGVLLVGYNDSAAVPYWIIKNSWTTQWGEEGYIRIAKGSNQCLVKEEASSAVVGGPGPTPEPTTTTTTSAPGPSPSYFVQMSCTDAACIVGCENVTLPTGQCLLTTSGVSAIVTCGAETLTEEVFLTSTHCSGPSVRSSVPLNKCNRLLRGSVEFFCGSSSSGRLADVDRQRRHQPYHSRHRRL
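Detergent-free condition (0.00005% Triton X-100) in acetate buffer pH 5.5 with DTT. 1.5 nM enzyme and compound were pre-mixed 15 min, then 2 uM Z-FR-AMC substrate added; reaction progress from fluorescence change between first and third reads (60 s).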
Lassa entry inh: blocks Lassa virus binding to or entry into cells; Lassa virus pseudotype entry inhibition, cell reporter; control for the full effect not named in the record; Potency, µM (titrated, usually from 37.9 µM), inactives show top-dose activity change, negative = inhibition, actives largely listed as inhibitors; 300,000 tested, 1.2% active; AID 540256; active means well fitted inhibition curve with a large enough effect; inconclusive means small, poorly fitted or top-dose-only effect, or effect the other way; inactive means flat fitted curve, though single readings scatter; tested in HEK293 cells; note: % is set by controls: 0 for no effect and ±100 for the full control effect; nearly all actives have a fitted effect of over 50% in size; luciferase read-out
Cruzain inh Det: inhibitors of Trypanosoma cruzi cruzain with detergent | purified cruzain, Z-FR-AMC fluorescence, 0.01% Triton | 200,000 tested, 0.43% active | P25779 | Potency, µM, for the others: max response, negative = inhibition, most hits filed as inhibitors; active = well fitted curve in the direction sought with a large enough effect; inconclusive = small, poorly fitted or top-dose-only effect, or another doubt; inactive = no such curve, though single readings can be large; an effect the other way counts as inactive or inconclusive;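 note: plate controls were neutral wells for no effect and buffer without enzyme for full effect; nearly all actives have a fitted effect of over 40% in size; top concentration of the series not given in the record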
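Purified cruzain (1.5 nM final) was preincubated with compounds for 15 min at room temperature in 100 mM sodium acetate pH 5.5, 5 mM DTT, 0.01% Triton X-100. Reaction started with 2 uM Z-FR-AMC; AMC fluorescence change over 60 s gave activity.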
MARV entry inh: Marburg virus entry inhibition. Marburg virus pseudotyped entry inhibition, cell reporter; control for the full effect not named in the record; about a third of the inactives were read at about 46 µM. Potency, µM (series often up to 37.8 µM), for the others: top-dose activity change, negative = inhibition, hits mostly inhibitors. 300,000 tested, 1.8% active; active = well fitted inhibition curve with a large enough effect; inconclusive = small, poorly fitted or top-dose-only effect, or effect the other way; inactive = flat fitted curve, though single readings scatter; tested in HEK293 cells; about a fifth of its hits are not listed in these tables; note: % is set by controls: 0 for no effect and ±100 for the full control effect; luciferase read-out
Starred values were filed as active, the others as inactive; ? = inconclusive; / = not tested or not shown; & = joins results of further samples; [ ] = dose if it differs, or a comment. Unless noted, calls come from the whole dose curve; as a rule, active means well fitted rising curve with a large enough effect; inconclusive means small, poorly fitted or top-dose-only effect; inactive means no such curve, though single readings can be large or run the other way. Potency is the fitted concentration of half-maximal effect.

canonical_smiles	RE007 growth inh	NS1 inh	StopGo reporter	SARS PLP yeast	Cruzain noTriton	Lassa entry inh	Cruzain inh Det	MARV entry inh
C=CC(=O)N=c1sc2ccccc2n1-c1ccccc1	-29%	/	?	-12%	/	?	/	?
CCCN1CCC(N2CCCC(C(=O)O)C2)CC1 (stereo not given)	15%	/	-30%	-6%	/	-18%	/	7%[14.2 µM]
Cc1cccc(NC(=O)C2CCCN2S(=O)(=O)c2ccc3c(c2)n(C)c(=O)c(=O)n3C)c1 (stereo not given)	-13%	-2%	-13%&-25%	-2%	-11%&6%	-4%[46.1 µM]	-4.8%&-4.4%	-27%[46.1 µM]
Cc1oc(-c2ccc(C(=O)NC(C)c3ccccc3)cc2)nc1CS(=O)(=O)c1ccccc1 (stereo not given)	/	/	-23%	/	1%	-9%[46.1 µM]	-4.0%	/
COc1ccc(CCNC(=O)CN2C(=O)NC3(CCCCC3)C2=O)cc1	-11%	/	-7%	0%	/	-5%	/	10%
CN(C)CCNC(=O)c1cc(Br)ccc1Cl	-6%	7%	-18%	1%	-1%	6%	-6.1%	-1%
Cc1nn2c(-c3ccncc3)ccnc2c1Br	-6%	/	-18%	1%	/	6%[46.1 µM]	/	?
CC(=O)c1ccc(N2CCN(CCC#N)CC2)c(F)c1	-5%	6%	-6%	0%	-6%	7%	-5.7%	25%
O=C(COc1cccc2c1CCNC2=O)NC1CCCCC1	10%	/	0%	1%	/	12%	/	5%
Cc1ccc(C(=O)OCC(=O)NN2C(=O)NC3(CCC(C)CC3)C2=O)cc1 (stereo not given)	20%	/	7%	2%	/	0%	/	18%
O=C(Cc1cccs1)NNC(=S)NC(=O)c1ccccc1	/	-26%	-20%	9%	2%	0%	2.8%	17%
CCOc1ccc(S(=O)(=O)Nc2cccc(C(=O)N3CCN(c4ccccc4O)CC3)c2)cc1	14%	/	-12%	5%	/	-14%	/	-16%
CCOC(=O)c1[nH]c(C)c(CCC(=O)Nc2cccc(C(F)(F)F)c2)c1C	/	/	-19%	/	-7%	3%[46.1 µM]	-4.5%	/
COC(=O)c1ccc(CN2CCCC(C(=O)Nc3cccc(-n4cnnn4)c3)C2)cc1 (stereo not given)	-10%	17%	28µM*	11%	/	?	/	?
CCOP(=O)(OCC)c1nc(-c2ccc(OC)cc2)oc1N1CCOCC1	33%	-3%	-2%	-1%	/	-26%[46.1 µM]	/	-5%[46.1 µM]
Cc1ccc(NC(=O)C(=O)NCC(c2cccnc2)N2CCc3ccccc32)cc1Cl (stereo not given)	/	/	-8%	/	-4%	12%[46.1 µM]	5.0%	/
Cc1cc(C)c(C)c(S(=O)(=O)N2CCC(C(=O)N3CCN(c4ccc(F)cc4)CC3)CC2)c1C	-6%	/	-27%	/	/	-5%	/	?
Cc1cccc(C(=O)N2CCN(Cc3ccc4c(c3)OCO4)CC2)c1	2%	1%	?	6%	9%	/	-0.6%	/
C=CCOc1ccccc1CNCc1cccnc1	0%	-10%	4%	3%	3%	0%	6.5%	5%
Cc1ccc(C)c(S(=O)(=O)NCCOC(=O)Nc2sc(=S)n(C)c2C)c1	1%	-1%	/	4%	-3%	-16%	-2.2%	2%

The last 2 entries of the section above are carried over, then new ones follow:
canonical_smiles	RE007 growth inh	NS1 inh	StopGo reporter	SARS PLP yeast	Cruzain noTriton	Lassa entry inh	Cruzain inh Det	MARV entry inh
C=CCOc1ccccc1CNCc1cccnc1	0%	-10%	4%	3%	3%	0%	6.5%	5%
Cc1ccc(C)c(S(=O)(=O)NCCOC(=O)Nc2sc(=S)n(C)c2C)c1	1%	-1%	/	4%	-3%	-16%	-2.2%	2%
CN(c1ccccc1)S(=O)(=O)c1cccc(C(=O)N2CCN(c3ccccn3)CC2)c1	-2%	-13%	40µM*	-1%	18%	?	-6.7%	-22%&-22%
CCC(=O)Nc1ccc2c(c1)C(=O)N(C)C2=O	17%	-7%	-24%	-9%	0%	-2%	-5.4%	16%
O=C(COc1ccccc1Cl)Nc1ccc(OCc2cc(=O)n3ccsc3n2)cc1	/	/	-11%	/	6%	-18%[46.1 µM]	0.6%	16%[46.1 µM]
CNC(=O)C1CCN(C(=O)N2CC(C)Oc3ccc(C)cc32)CC1 (stereo not given)	/	/	-20%	/	10%	-13%[46.1 µM]	-2.5%	/
Cn1ccnc1SCC(=O)Nc1nc2c(F)c(F)c(F)cc2s1	-11%	21%	6%	-2%	/	/	/	/
COc1cc(Br)c(/C=C(\C#N)c2nc3ccccc3[nH]2)cc1OC	/	/	15%	/	?	-6%[46.1 µM]	-3.5%	/
NS(=O)(=O)c1ccc(NC(=S)NC(=O)C2CCCCC2)cc1	-19%	4%	10%	18%	/	4%[46.1 µM]	/	?
COc1ccc(NC(=O)c2ccc(Cc3ccc(C)cc3)o2)cc1	-23%	-31%	-26%	-68%	-8%	?	-10%	?
O=C1c2ccc3c4c(ccc(c24)C(=O)N1c1ccc2ccccc2c1)CC3	0%	25%	-22%	11%	-5%	-18%	1.8%	?
CN1C(=O)N(C)C(=O)C2(Cc3cc([N+](=O)[O-])ccc3N(C)C2c2ccccc2)C1=O (stereo not given)	-9%	8%	0%	-16%	-12%	1%	-10%	?
Cc1cc(=O)oc2cc(OCC(=O)N/N=C/c3cc([N+](=O)[O-])ccc3O)ccc12	8%	3%	5%	-1%	6%	-4%	-2.9%	16%
CC(Sc1nnc(-c2ccccc2F)n1N)C(=O)NCC1CCCO1 (stereo not given)	-6%	/	0%	9%	/	25%	/	-10%
Cc1ccc(C2=NC3(CCCCC3)N=C2SCC(=O)Nc2ccc3c(c2)OCCO3)cc1	19%	-11%	-20%	5%	16%	-17%	-4.0%	-8%
O=C1CCCC2=C1C(c1ccc(O)cc1)c1c(ccc3ccccc13)N2 (stereo not given)	-14%	/	-7%	-1%	/	-7%	/	2%[46.1 µM]
Cc1ccc(S(=O)(=O)Nc2ccc3c(c2)c(C(=O)OC(C)C)c(C)n3S(=O)(=O)c2ccc(C)cc2)cc1	/	/	1%	/	5µM*	?	-3.0%	?
COc1ccccc1Nc1nn2c(=O)c3ccc(C(=O)NCc4ccc(F)cc4)cc3nc2s1	/	/	?	/	-12%	?	-3.6%	/
CCC(C)NC(=O)C(Cc1ccccc1)n1cccc1 (stereo not given)	1%	-2%	-19%	-8%	12%	/	6.7%	/
C=CCn1cnc2scc(-c3ccc(C)cc3)c2c1=O	-11%	-47%	-10%	8%	-7%	-13%	0.5%	1%
Cc1ccc2nsnc2c1NC(=O)COc1ccccc1	-14%	/	-8%	0%	/	-17%[46.1 µM]	/	2%[46.1 µM]
Cc1cc(OC(C)C(=O)NCc2ccccn2)c2c(C)cc(=O)oc2c1 (stereo not given)	-5%	2%	-15%	14%	/	/	/	/

canonical_smiles	RE007 growth inh	NS1 inh	StopGo reporter	SARS PLP yeast	Cruzain noTriton	Lassa entry inh	Cruzain inh Det	MARV entry inh
O=C(NC(=S)Nc1ccc(-c2ccccc2)cc1)c1ccccc1	?	/	9%	/	/	-19%[46.1 µM]	/	?
CCCC(=O)Nc1ccc(NC(=S)NC(=O)c2ccccc2[N+](=O)[O-])cc1	5%	19%	-13%	-5%	-3%	?	-9.7%	?
CCCCCn1c(=O)[nH]c2cc(C(=O)Nc3cc(OC)cc(OC)c3)ccc2c1=O	/	/	-25%	/	-6%	0%[46.1 µM]	-0.5%	17%[46.1 µM]
COc1ccc(CC(=O)NCc2ccco2)cc1OC	12%	13%	/	3%	1%	-1%	5.2%	18%
O=C(c1ccncc1)N1CCN(S(=O)(=O)c2ccc(OC(F)(F)F)cc2)CC1	7%	/	0%	3%	/	-1%	/	-22%
Cc1ccc(Sc2c(C)nn(C(=O)COc3ccccc3Br)c2C)cc1	/	/	-2%	/	9%	7%[46.1 µM]	-2.9%	-4%[46.1 µM]
CC1C/C(=N/Nc2ccc([N+](=O)[O-])cc2[N+](=O)[O-])CC(C)(C)C1 (stereo not given)	-14%	-3%	?	-4%	-10%	-23%	-4.5%	?
O=C(CN1CCCCC1)Nc1cc(Cl)ccc1Cl	-2%	1%	32%[activator]	-1%	-11%	6%	3.1%	14%
CCC(CC)C(=O)Nc1ccc2nc(SCC(=O)N3CCOCC3)sc2c1	/	/	-25%	/	-6%	-2%[46.1 µM]	-2.3%	-13%[46.1 µM]
C[N+](C)(C)CC(=O)N1CCN(c2ccc3ccccc3n2)CC1	-9%	4%	-21%	-3%	/	/	/	/
O=C(Cc1c(F)cccc1Cl)NCCCn1ccnc1	-8%	5%	/	-1%	-4%	10%	5.5%	20%
COC(=O)[C@H](Cc1c[nH]c2ccccc12)NC(=O)Cc1c[nH]c2ccccc12	-18%	8%	-22%	-1%	/	-1%[46.1 µM]	/	21%[46.1 µM]
COc1ccc(NCC(O)COc2ccc(C(C)(C)C)cc2)cc1 (stereo not given)	-23%	/	-11%	-2%	/	-28%	/	-1%
COCCNC(=O)c1c[nH]c2ccc(S(=O)(=O)N3CCOCC3)cc2c1=O	-18%	-3%	-14%	18%	/	/	/	/
Cc1cc(O)c2c3c(c(=O)oc2c1)CCC(C)C3 (stereo not given)	-11%	-71%	-2%	-7%	/	/	/	/
CCOC(=O)C1CCN(CCC(=O)Nc2ccccc2OC)CC1	/	/	1%	/	-6%	19%[46.1 µM]	0.0%	/

Bioassay records (PubChem)
